Sfp PPTase inh: qHTS Assay for Inhibitors of Bacillus subtilis Sfp phosphopantetheinyl transferase (PPTase); 4'-phosphopantetheinyl transferase ffp (Bacillus subtilis), Q9F4F7; 310,000 tested, 3.5% active; Potency, µM, inactives show max response, negative = inhibition, usual class: inhibitors; Biochemical Sfp PPTase activity, qHTS; active = well fitted inhibition curve with a large enough effect; inconclusive = small, poorly fitted or top-dose-only effect, or another doubt; inactive = no such curve, though single readings can be large or run the other way;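 also: the enzyme is Sfp with the accession as filed and its product quenches rhodamine fluorescence; potency is read from the fitted curve at half-maximal effect; 0% = enzyme reaction without inhibitor and -100% = no enzyme wells; top concentration of the series not given in the record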
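Step 1, compound plus 15 nM Sfp-PPTase, 15 min, room temperature. Step 2, add rhodamine-CoA (5 uM) and BHQ-2-YbbR (12.5 uM). Step 3, read 525/598 nm fluorescence at 0 and 30 min.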
PINK1 modulator: A Quantitative High throughput Screen to Identify Chemical Modulators of PINK1 Expression | PINK1 immunofluorescence, high-content cytometry, 24 h | Potency, µM (top dose mostly 76.6 µM), for the others: top-dose activation (PINK1 increase), usual class: activators | 410,000 tested, 0.2% active; active = well fitted activation curve with a large enough effect; inconclusive = small, poorly fitted or top-dose-only effect; inactive = flat fitted curve, though single readings scatter; cell line not stated here;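 also: potency is read from the fitted curve at half-maximal effect; % of control where 0% means no effect; nearly all actives have a fitted effect of over 65% in size; a mitochondrial uncoupler was the plate control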
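PINK1 protein level read as immunofluorescence by microplate cytometer in a fixed, stained stable cell line after 24 h exposure to five compound concentrations, with CCCP as control.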
Six1-Eya2 inh: qHTS Assay for Inhibitors of the Six1/Eya2 Interaction; activity change, % (no concentration beside the values); 360,000 tested, 0.56% active; AlphaScreen GST-Six1/His-Eya2 binding, biochemical; stronger effect = lower value; control for the full effect not named in the record; AID 651725, 2012; Homeobox protein SIX1 (Homo sapiens) + Protein phosphatase EYA2 (Homo sapiens), …; in the data active = activity change below about -65%; inconclusive = about -30% to -65%; inactive = above about -30%; also: % is scaled to controls: 0 for no effect and ±100 for the full control effect; compound concentration not given in the record
Target sequence (O00167 whole entry, looked up): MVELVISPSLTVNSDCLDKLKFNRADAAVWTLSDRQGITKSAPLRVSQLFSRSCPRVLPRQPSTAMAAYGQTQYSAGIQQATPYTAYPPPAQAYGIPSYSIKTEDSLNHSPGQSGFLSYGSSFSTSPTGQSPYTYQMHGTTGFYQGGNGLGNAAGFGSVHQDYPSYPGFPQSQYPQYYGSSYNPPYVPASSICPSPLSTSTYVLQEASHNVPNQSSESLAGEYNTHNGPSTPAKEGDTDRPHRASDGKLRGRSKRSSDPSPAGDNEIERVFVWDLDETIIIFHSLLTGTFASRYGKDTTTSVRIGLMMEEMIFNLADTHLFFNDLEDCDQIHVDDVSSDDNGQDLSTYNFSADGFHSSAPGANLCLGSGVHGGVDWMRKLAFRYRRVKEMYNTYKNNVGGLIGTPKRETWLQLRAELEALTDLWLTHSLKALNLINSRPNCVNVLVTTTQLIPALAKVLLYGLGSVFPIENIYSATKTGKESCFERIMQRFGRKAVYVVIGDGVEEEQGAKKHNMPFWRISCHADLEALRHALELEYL
Target sequence (Q15475 whole entry, looked up): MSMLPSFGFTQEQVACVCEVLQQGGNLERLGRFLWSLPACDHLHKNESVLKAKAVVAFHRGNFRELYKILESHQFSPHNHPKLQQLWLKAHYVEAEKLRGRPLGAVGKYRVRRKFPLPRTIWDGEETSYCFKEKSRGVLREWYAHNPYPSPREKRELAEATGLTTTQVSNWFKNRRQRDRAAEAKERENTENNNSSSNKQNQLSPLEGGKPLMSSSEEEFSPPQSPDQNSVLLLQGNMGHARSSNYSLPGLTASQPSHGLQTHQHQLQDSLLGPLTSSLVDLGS
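Six1/Eya2 binding was read as AlphaScreen signal after compounds were pinned into GST-Six1 plus His-tagged Eya2 (5X stock 250/500 nM) in pH 8.0 Tris/NaCl/TCEP buffer, beads added, then incubated 1 h, 37 C, dark.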
CtBP-E1A inh: qHTS Assay for Inhibitors of the CtBP/E1A Interaction; activity change, % (no concentration beside the values); 340,000 tested, 0.49% active; AID 651724, 2012; CtBP / adenovirus E1A interaction (AlphaScreen); AlphaScreen GST-E1A/His-CtBP binding, 1536-well; stronger effect = lower value; control for the full effect not named in the record; in the data active means activity change below about -65%; inconclusive means about -30% to -65%; inactive means above about -30%; also: % is scaled to controls: 0 for no effect and ±100 for the full control effect; compound concentration not given in the record
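In 5 uL wells, 23 nL compound meets equimolar GST-E1A and His-CtBP (5X stock 125 nM each) for 2 h, 37 °C. Beads (5X, 50 ug/mL) then 1 h, 37 °C, dark.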
TRPV1 PAM: HTS Assay for Compounds that Act as Potentiators of the Vanilloid Receptor 1 | 320,000 tested, 0.02% active | TRPV1-expressing cells, Fluo-8 calcium influx, capsaicin EC20 potentiation; host cell line not named in the record; control for the full effect not named in the record | AID 540277, 2011 | potentiation, % at 8.33 µM; active means potentiation above 80%; inconclusive means 30% to 80%; inactive means below 30%; also: 0% is about no effect
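Cells expressing TRPV1 were dye-loaded with Fluo-8 and read kinetically: 10 s baseline, 3 min after compound (agonist portion), then 2 min after EC20 capsaicin (allosteric enhancer portion). Calcium-bound dye fluorescence at 480/520 nm.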
D2 potentiator: Beta-Arrestin HTS for Positive Allosteric Modulators of the Human D2 Dopamine Receptor: Potentiators; DiscoveRx D2 beta-arrestin cells, luminescence, 90 min; 100% = 57 uM dopamine signal; potentiation, % (concentration not given with the values); 360,000 tested, 0.23% active; AID 624464, 2012; active = potentiation of 50% or more; inconclusive = 30% to 50%; inactive = 30% or less;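 also: compound concentration not given in the record; tested on top of an EC20 dose of dopamine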
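PathHunter beta-arrestin assay in DiscoveRx D2 cells. Compounds were added with an EC20 of dopamine (50 nM final) for 90 min at 37 deg C. Luminescence was read 1 h after detection reagent, with 57 uM dopamine as the EC100 control.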
D2 agonist: Beta-Arrestin HTS for Positive Allosteric Modulators of the Human D2 Dopamine Receptor: Agonists; DiscoveRx PathHunter D2 beta-arrestin, luminescence, 90 min; 100% = 57 uM dopamine signal; activation, % (no concentration beside the values); D(2) dopamine receptor (Homo sapiens), P14416; 360,000 tested, 0.084% active; AID 624465, 2012; in the data active = activation above about 40%; inconclusive = about 15% to 40%; inactive = below about 15%; also: compound concentration not given in the record; the text of the record calls up to 30% inactive
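DiscoveRx PathHunter D2 beta-arrestin cells (2,100/well) attached overnight, then compound-stimulated 90 min at 37 C in HBSS/10 mM HEPES/0.1% Tween-20 buffer; beta-galactosidase complementation read by luminescence after 1 h at ambient temperature. Dopamine 57 uM final (EC100) as control.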
An asterisk follows results filed as active; ? = inconclusive; / = no result given; [ ] = dose if it differs, or a comment.

Fields: PINK1 modulator	CtBP-E1A inh	D2 potentiator	TRPV1 PAM	Six1-Eya2 inh	D2 agonist	Sfp PPTase inh
O=C(O)CCn1c(Cc2ccccc2)nc2ccccc21
→ -0.1%	3	-3	-2	-5	1.9	9%
CC(=O)NNC(=O)CCn1nnc(-c2ccc(Cl)cc2)n1
→ 2.1%	0	-1	0	3	-4.1	13%
COc1ccc(NC(=O)CSc2ccc(-c3ccco3)nn2)c(OC)c1
→ 1.7%	-26	-10	5	-14	5.6	-27%
CC1CCCN(Cc2c(O)ccc3c(=O)c(-c4nc5ccccc5s4)c(N)oc23)C1 (stereo not given)
→ 0.2%	-26	-4	-11	-28	1.9	?
c1ccc(-c2cnnc(N3CCOCC3)n2)cc1
→ -0.8%	-14	1	-19	-2	-3.6	-1%
Cc1ccc(C(=O)Nc2cccc(-c3nc4ncccc4o3)c2)cc1
→ 8.4%	-22	-1	-13	?	-1.2	-7%
CCCCOC(=O)NC(NCC(O)c1ccccc1)(C(F)(F)F)C(F)(F)F (stereo not given)
→ ?	12	3	-6	13	-1.2	12%
CCN(CC)c1ccc(/C=N\NC(=O)c2cccc3cc[nH]c23)cc1
→ 6.0%	-5	0	4	-23	-11	5%
COC(=O)CC/C(O)=C1\C(=O)CC(C)(C)CC1=Nc1ccccc1OC
→ 3.3%	26	-20	-4	21	-4.4	10%
Cc1cc(C)c2c(=O)n(CC(=O)NCCCN3CCN(c4ccccc4F)CC3)sc2n1
→ -1.3%	-2	-16	-17	1	-0.1	4.5µM*

Fields: PINK1 modulator	CtBP-E1A inh	D2 potentiator	TRPV1 PAM	Six1-Eya2 inh	D2 agonist	Sfp PPTase inh
CSc1ccc(Cn2nnc(C(=O)NCCc3ccc(Cl)cc3)c2N)cc1
→ 8.9%	0	-5	9	21	2.4	18%
Nc1nc(-c2ccccc2)c(-c2ccccc2)o1
→ -0.2%	0	-3	/	-1	2.3	19%
Cc1nnc(SC(=O)N2c3ccccc3Sc3ccccc32)s1
→ -0.7%[38.3 µM]	5	-8	-3	-3	-0.1	-13%
COc1ccc2c(c1OC)C(=O)OC2N1C(=O)CC[C@H]1C(=O)NCC1CCCO1 (stereo not given in full)
→ 0.8%	1	-10	-2	2	-2.7	8%
COc1ccc(CC(=O)O/N=C(\N)Cc2cccc3ccccc23)cc1
→ 5.2%	/	-2	7	17	11	-6%
COCCCNc1nc2c(c(=O)[nH]c(=O)n2C)n1CC(O)COc1ccccc1 (stereo not given)
→ -15%[38.3 µM]	-4	-10	0	5	-2.6	3%
CCCCC(=O)Nc1nc(-c2ccc(S(=O)(=O)N3CCOCC3)cc2)cs1
→ 0.5%	-4	?	-1	-6	0.1	2%
COCCCNC(=O)CC1C(=O)N(Cc2ccccc2)C(C)c2nc3ccccc3n21 (stereo not given)
→ 1.3%	3	-3	-10	7	-4.9	17%
O=C(COc1ccc([N+](=O)[O-])cc1)NCc1ccncc1
→ 1.6%	0	-2	-7	-1	1.2	6%
O=C(CNC(=O)c1ccccc1)OCC(=O)c1ccccc1Cl
→ -0.5%	-1	-28	-3	0	-10	17%

Fields: PINK1 modulator	CtBP-E1A inh	D2 potentiator	TRPV1 PAM	Six1-Eya2 inh	D2 agonist	Sfp PPTase inh
Cc1cc2c(cc1C)NC1=C(N2)OC(c2cccc(O)c2)C1=O (stereo not given)
→ 0.4%	/	-21	12	5	-1.3	7%
Cc1noc(C)c1COC(=O)[C@H](C)NS(=O)(=O)c1ccc(Cl)c(Cl)c1
→ -0.7%	9	8	8	5	-2.7	19%
O=C(CN1CCC(NC(=O)Cc2ccccc2)CC1)Nc1cccc2ccccc12
→ /	3	-15	-21	-2	-1.0	12%
N#CC(C#N)=Cc1cc2ccccc2nc1N1CCCCC1
→ 4.9%	0	-12	?	-3	-7.3	7%
COc1ccc(-c2csc3ncn(Cc4ccccc4)c(=O)c23)cc1
→ -0.2%	/	-10	5	11	-1.9	-2%
O=C(NCCCN1CCOCC1)C(=O)NCC1OCCN1S(=O)(=O)c1ccc(Br)cc1 (stereo not given)
→ -0.6%	1	-15	-9	-1	-3.6	11%
COc1cc(SC)ccc1C(=O)NNC(=O)C1COc2ccccc2O1 (stereo not given)
→ 4.6%	-7	-24	/	9	-2.5	/
Cc1cc(C)nc(SC2CC(=O)N(c3ccc(C)c(C)c3)C2=O)n1 (stereo not given)
→ 13%	/	8	0	-1	-3.5	1%
CCOC(=O)N1CCN(S(=O)(=O)c2ccc(C(=O)N(CCCN(C)C)c3nc4c(C)c(C)ccc4s3)cc2)CC1
→ 5.0%	-13	-31	-1	-19	-2.3	/
O=C(NCc1cccc(Br)c1)C1CC2Cn3c(nc4ccccc43)C2N1Cc1ccccc1 (stereo not given)
→ 1.2%	-1	-11	/	0	1.3	/

Fields: PINK1 modulator	CtBP-E1A inh	D2 potentiator	TRPV1 PAM	Six1-Eya2 inh	D2 agonist	Sfp PPTase inh
O=C(Oc1cccnc1)c1ccc([N+](=O)[O-])cc1
→ -0.1%	-1	2	3	?	-2.3	-4%
Cc1ccccc1CNC(=O)CCn1nc(C)c2c(C)n(-c3ccccc3)nc2c1=O
→ 0.1%	2	-3	-3	2	3.5	6%
COc1ccc2c(c1)nc(SCC(=O)c1cccs1)n2C
→ 2.7%[38.3 µM]	6	-9	12	-4	0.9	89µM*
CCOC(=O)CN(C(=O)c1ccccc1[N+](=O)[O-])C(C)(C)C
→ -0.3%	5	-3	-7	-2	3.0	23%
COc1ccc(CNC(=O)COC(=O)c2ccc(C)c(S(=O)(=O)N3CCOCC3)c2)cc1OC
→ 2.4%	/	20	0	-1	2.0	/
CCCOc1ccc2nc(C)c(CCC)c(SC(=N)N)c2c1
→ 4.6%	8	-6	-2	7	-3.5	?
Cc1c(C(=O)N2CCc3ccccc3C2)oc2ccc(Br)cc12
→ 24%	11	-14	1	22	0.6	/
CC(C)CC1Nc2ncnc(N3CCCCC3)c2N(Cc2ccc(Br)cc2)C1=O (stereo not given)
→ 5.1%	-8	-22	1	-3	-3.8	/
CN1CCN(CCCNC(=O)c2ccc(/C=C3\Oc4ccccc4N(Cc4ccccc4F)C3=O)cc2)CC1
→ -0.7%	/	-18	-3	12	-4.2	56µM*
CC[n+]1ccc(C)c2cc(SC(F)(F)F)ccc21
→ -1.0%	0	1	28	10	2.6	5%

Fields: PINK1 modulator	CtBP-E1A inh	D2 potentiator	TRPV1 PAM	Six1-Eya2 inh	D2 agonist	Sfp PPTase inh
CC(=O)C1CCC2C3CCC4=CC(=O)C=CC4(C)C3C(=O)CC12C (stereo not given)
→ -2.6%	-18	-1	/	-8	6.7	/
O=C(O)c1ccccc1C(=O)Nc1ccc(-n2ccc(C(F)(F)F)n2)cc1
→ -0.3%	13	2	5	1	-0.8	20%
CCN1CCN(c2ccc(Cl)cc2NC(=O)c2ccc(-n3nc(C)cc3C)cc2)CC1
→ -0.3%	0	-3	4	-5	-0.8	/
Cc1nc2ccccc2nc1CN1CCC(CO)(CC2CCCCO2)CC1 (stereo not given)
→ 1.5%	5	-12	-1	9	-0.7	24%
Cc1ccccc1NC(=O)COC(=O)C1CC2CCCC(C1)C2=O (stereo not given)
→ -0.8%	0	-13	-26	9	-2.9	/
Cc1cc2ccccn2c1C(=O)c1cccc([N+](=O)[O-])c1
→ 6.0%	?	-28	5	-27	-3.4	1%
O=C1C=C(c2ccc(Cl)c(C(F)(F)F)c2)C[C@@H](c2ccc3c(c2)OCO3)C1
→ 7.0%	/	0	-9	-6	-3.4	/
Cc1cc2c(NC3CCCCC3)ncnc2s1
→ 3.9%	1	-16	-28	-9	6.7	-13%
C=CCC1C=CCC(CC=C)N1C(=O)c1ccccc1[N+](=O)[O-] (stereo not given)
→ 0.8%	-1	-4	5	-8	0.9	17%
CC1(C)C(CO)=CC(=O)C2=C1SCC(=O)N2
→ 0.9%	6	-1	8	8	-2.1	16%

Next part (three carried over from the part before).
Fields: PINK1 modulator	CtBP-E1A inh	D2 potentiator	TRPV1 PAM	Six1-Eya2 inh	D2 agonist	Sfp PPTase inh
Cc1cc2c(NC3CCCCC3)ncnc2s1
→ 3.9%	1	-16	-28	-9	6.7	-13%
C=CCC1C=CCC(CC=C)N1C(=O)c1ccccc1[N+](=O)[O-] (stereo not given)
→ 0.8%	-1	-4	5	-8	0.9	17%
CC1(C)C(CO)=CC(=O)C2=C1SCC(=O)N2
→ 0.9%	6	-1	8	8	-2.1	16%
COc1ccc(NS(=O)(=O)c2ccc(N3CCCC3=O)cc2)cn1
→ 7.3%	/	-1	-2	4	3.1	16%
Cc1ccc(OCC(=O)Nc2ccc(N3CCOCC3)cc2)c([N+](=O)[O-])n1
→ 1.9%	-4	-5	2	1	-5.4	11%
CCOc1ccc(S(=O)(=O)NCc2cccnc2)cc1
→ 1.2%	1	-4	-2	-6	-2.4	13%
Cc1c(NC(=O)C(C)Oc2ncnc3ccccc23)c(=O)n(-c2ccccc2)n1C (stereo not given)
→ 0.4%	4	-8	22	12	-1.5	3%
CC(C)N(Cc1nc(-c2ccccc2)no1)C(=O)CCCN1C(=O)c2ccccc2C1=O
→ 0.1%[38.3 µM]	-3	-12	-1	0	3.7	-8%
CCCCC(=O)N(C)c1c(CC)nc2c(OCCOC)cccn12
→ 0.4%	-12	-8	/	2	-6.0	/
COc1ccc([C@@H]2C[C@@H](c3ccccc3)Oc3cc(C)cc(C)c32)cc1
→ 9.1%	1	-2	-6	6	1.3	14%
CCCCOCC(O)CCc1n[nH]c(=S)n1-c1ccccc1 (stereo not given)
→ 4.7%	13	-4	13	2	0.3	?
Cc1cccc2c1-c1sc(C(=O)N3CCc4ccccc4C3)cc1CO2
→ 4.2%	25	-3	13	41	-3.9	-2%
Cc1csc2ncc(C(=O)NCc3ccccc3Cl)c(=O)n12
→ 1.7%	3	-5	0	0	4.9	7%
CCc1ccc(CN(C)C(C)C(=O)Nc2ccc(S(=O)(=O)N3CCCC3)cc2)cc1 (stereo not given)
→ 3.3%	0	-26	-41	-7	-4.0	/
C=CCn1c(COc2ccc(Cl)cc2)nnc1SCC(=O)N1CC(=O)Nc2ccccc21
→ /	-3	3	13	1	3.8	19%

Outcome played no part in choosing rows. About 3.7% of those tested had a hit in this group.
